Bead autofluor: flagged as autofluorescent in microsphere protease counterscreen. fluorescence intensity (no concentration beside the values). 360,000 tested, 3.1% active. compound autofluorescence counterscreen, microsphere flow cytometry; stronger effect = higher value;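 active means at least 3 SD above the mean of all compounds, about 16000 in these data; inconclusive means too few beads counted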;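 further: 100 nL of 1 mM stock went into each well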
BJeLR lethal: kills HRASV12-expressing BJeLR cells; AID 1554; inhibition, % (no concentration beside the values); 300,000 tested, 0.17% active; BJeLR (HRASV12) viability, CellTiter-Glo ATP luminescence, 48 h; reference of the scale not given here;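 active means replicate mean above 50%; inconclusive means above 50% but judged a plate artefact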;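 further: 50 nL library stock added to about 25 µL; numbers are from one replicate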
PrP UTR inh: inhibition of PrP 5' UTR reporter expression; cell-based PrP 5' UTR mRNA reporter, plate reader; AID 488862; 340,000 tested, 0.35% active; inhibition, % (concentration not given with the values);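 active means every replicate at 50% or more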;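 further: 0 = median of the neutral control wells; tested in H4 reporter cells; numbers are from one replicate; inactives centre near -14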
Sa RN4220 lethal: kills Staphylococcus aureus RN4220; S. aureus RN4220 growth, OD600, 16 h; inhibition, % (concentration not given with the values); 330,000 tested, 0.33% active;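 active means z-score of -3 or lower and OD600 up to 0.18 on both plates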;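 further: plate controls were untreated cells for no effect and reference antibiotic for full effect; stock transfer was 100 nL into about 80 µL; one replicate is shown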
Mtb hypoxia inh: inhibitors of hypoxia-regulated fluorescent reporter in Mycobacterium tuberculosis; M. tuberculosis hypoxia-regulated fluorescent reporter, fluorescence; fluorescence inhibition, % (no concentration beside the values); 300,000 tested, 0.1% active;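 active means 35 to 45% if threefold the growth effect, above 45% if 1.5-fold the growth effect; inactive means the rest, general growth blockers included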;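 further: wells of about 50 µL received 100 nL stock; 0% = vehicle wells and 100% = reference inhibitor wells; whole bacteria with a GFP reporter of the hypoxia response; strong numbers were not always called active; many hits fall short of the cut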
Sa ugtP lethal: growth inhibition of S. aureus ugtP deletion strain; S. aureus RN4220 ugtP deletion, OD600 growth, 16 h; some inactives read as strong as hits; 330,000 tested, 0.54% active; AID 1259309; growth inhibition, % (test concentration not listed);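 active means z-score under -3 and OD600 up to 0.15 on both plates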;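 further: plate controls were untreated wells for no effect and antibiotic for full effect; wells of about 80 µL received 100 nL stock; the first replicate is given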
Mtb hypoxia inh growth: recorded beside Mtb hypoxia inh, whose call it bears; growth inhibition, %; measured here: M. tuberculosis growth (absorbance);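 0% = vehicle and 100% = reference antibiotic; read after six days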
Active calls of the source: *; ? = inconclusive; / = no result given.

SMILES	Bead autofluor	BJeLR lethal	PrP UTR inh	Sa RN4220 lethal	Mtb hypoxia inh	Mtb hypoxia inh growth	Sa ugtP lethal
Cc1n[nH]c(C)c1N1C(=O)c2cccc3c(N4CCCCCC4)ccc(c23)C1=O	20898*	-4	-14	2.5	-8	3	-4
C=CCNC(=O)c1ccc(C)c(Br)c1	4816	-4	-29	-0.3	/	/	-5
COc1cccc(C(=O)NCC(=O)NN=Cc2cccc(OC(=O)c3ccc([N+](=O)[O-])cc3)c2)c1	/	/	/	0.4	6	-1	2
Cn1cccc1C=C1SC(=O)N(c2ccccc2)C1=O	/	/	/	-0.1	1	1	-10
O=C(CNC(=O)c1ccccc1)OCc1ccc([N+](=O)[O-])cc1	1953	-14	-15	2.5	7	4	4
COc1cc(CSC)nc(-c2ccccc2)n1	2106	4	-3	3.1	7	-7	5
Cc1cc(=O)[nH]c2c1c(C)nn2C1CCCCC1	9882	-6	-6	2.4	3	9	4
CCCC(C(=O)NC(C)(C)C)N(Cc1ccccc1Cl)C(=O)c1snc(C(N)=O)c1N (stereo unspecified)	?	-2	-2	-0.7	-4	17	34
CCOc1ccccc1N1CC(C(=O)NCCC2=CCCCC2)CC1=O (stereo unspecified)	6206	/	-35	2.7	-1	9	3
CCOCCn1c(N2CCN(c3ccc(OC)cc3)CC2)nc2c1c(=O)[nH]c(=O)n2C	3986	2	-15	2.3	/	/	10
COc1cccc(/C(O)=C2\C(=O)C(=O)N(c3ccccn3)C2c2cccc(OC)c2OC)c1 (stereo unspecified)	21089*	0	-6	8.1	9	15	-4
C[N+]1=C(/C=C/Nc2ccccc2)C(C)(C)c2ccccc21	2351	-6	-11	2.2	-3	3	-3
COc1ccccc1CNC(=O)C1CCN(S(=O)(=O)N2CCCCC2)CC1	6959	0	-10	4.2	-1	7	-2
CCc1c(C(=O)NCc2cnn(C)c2)csc1C	9988	3	-22	1.9	6	9	-1
Cc1cccc(C)c1NC(=O)CNC(=O)Cc1c[nH]c2ccccc12	5344	7	-18	1.8	-1	-2	5
OCCSc1nc(N2CCOCC2)nc(N2CCOCC2)n1	4347	-17	-26	4.2	9	7	9
COc1ccc(-c2csc(-c3cccs3)n2)cc1OC	4105	6	-110	17	-6	-4	9
O=C(NCc1cccc(Cl)c1)C1=CC=CN2CCS(=O)(=O)N=C12	5503	/	/	2.6	2	14	-8
COc1ccc(F)cc1C(=O)C1CCCN(Cc2cccn2-c2cccnc2)C1 (stereo unspecified)	4891	2	-7	4.1	11	7	6
C/C(=N\NC(=O)Cc1csc(N2CCOCC2)n1)c1ccc(Cl)c(Cl)c1	4394	4	-22	/	/	/	/
O=C(Cn1c(-c2ccccc2)c[n+]2ccsc12)c1ccc(Br)cc1	4127	25	-26	6.3	22	27	11
Cc1ccc2c(c1)c1c(n2CC(O)Cn2c(C)nc3ccccc32)C(=O)CCC1 (stereo unspecified)	5261	-10	-10	3.1	-1	-6	1
Cc1ccc(NC(=O)CCN2C(=O)CSC2=O)c(C)c1	3000	5	-10	-3.2	24	4	7
Cc1ccc(C(CNC(=O)c2ccc(Br)o2)N2CCN(C)CC2)cc1 (stereo unspecified)	5519	2	-13	3.3	1	6	-1
Nn1c(=S)[nH]nc(Cc2ccc(O)cc2)c1=O	2445	5	-18	3.3	25	29	7
CCOC(=O)c1ccc(CNC(=O)Cn2nnc(-c3ccc(C)cc3)n2)o1	2916	-6	-13	-7.9	9	10	5
COCCNC(=O)C(=O)N/N=C(\C)CC(=O)Nc1ccc(Cl)cc1Cl	2150	2	-4	/	/	/	/
COc1ccc(OC)c(CN2CCN(C(=O)COc3cccc(C)c3)CC2)c1	3278	12	-5	0.6	0	3	-2
CCc1ccccc1NC(=O)COc1ccc(N2CC(C(N)=O)CC2=O)cc1 (stereo unspecified)	3926	-11	-7	2.6	-1	1	4
O=C(/C=C/c1ccc(Cl)c(Cl)c1)n1cccn1	2682	1	-19	3.1	/	/	1
CCC(CC)NCc1ccc(OC)cc1OC	22992*	-3	-3	3.2	5	16	-1
O=[N+]([O-])c1cc(S(=O)(=O)NCCCN2CCOCC2)ccc1Cl	6861	-1	-29	1.4	-4	2	3
COC(=O)CCN(C1CCCCC1)S(=O)(=O)c1ccc(S(=O)(=O)NC2CCCCC2)cc1	10186	0	-25	3.3	7	3	-4
C=CCn1c(O)c(C2=c3ccccc3=NC2=O)c2ccccc21	3989	8	-10	97*	17	31	98*
CCCCn1c(N)c(N(CC(C)C)C(=O)c2cccc(OCc3ccccc3)c2)c(=O)[nH]c1=O	4781	0	-8	0.0	-6	-5	-1
COc1cccc(NC(=O)CN(C)CC(=O)NCc2ccco2)c1	4822	/	-13	4.0	1	0	8
Cc1ccccc1N1CCN(C2CCCN(C(=O)CCN3CCCCC3=O)C2)CC1 (stereo unspecified)	4552	-4	6	5.0	2	-2	12
Cc1cccnc1NC(=O)c1ccc(S(=O)(=O)N2CC(C)OC(C)C2)cc1 (stereo unspecified)	3944	-10	-10	1.6	2	-1	4
C=CCOc1ccc(CNc2nn[nH]n2)cc1	3986	4	0	2.6	4	5	5
Cn1c(=O)oc2cc(S(=O)(=O)NCCN3CCc4ccccc4C3)ccc21	4614	-4	-8	0.2	/	/	5
CCCS(=O)(=O)c1nc(S(=O)(=O)c2ccc(C)cc2)c(N2CCC(O)CC2)s1	4295	-3	-4	9.6	-3	-8	19
CCn1c(C)nnc1SCC(=O)Nc1nccs1	3996	-6	-21	2.9	-2	8	1
O=C(Cn1cnc2c(oc3ccccc32)c1=O)NCCc1ccccc1	8507	-8	-34	1.2	10	3	1
CC(CC(=O)N1CCN(C=O)CC1)=NNC(=O)c1ccc([N+](=O)[O-])cc1	/	/	/	4.1	-4	-6	10
CC(C)(C)N(Cc1ccccc1)C(=O)CSc1nc2ccccc2c(=O)[nH]1	10933	-1	/	0.0	2	-1	-29
CCOc1ccc(C(C(=O)NCC2CCCO2)N(C(=O)c2snc(C(N)=O)c2N)c2cccc(F)c2)cc1 (stereo unspecified)	5011	1	-5	11	0	-3	-15
O=C(COc1c(Br)cc(Br)cc1Br)NN=Cc1ccco1	/	/	/	0.7	-4	2	0
COc1ccc(C(=O)COC(=O)c2cc(S(=O)(=O)NCc3ccccc3)ccc2O)cc1	4865	6	-8	3.1	10	-7	-73
CS(=O)(=O)Nc1ccc(C(=O)NC2CCCCC2)cc1	4095	11	-26	3.9	5	-2	4
Cc1cccc(Nc2ncc3c(n2)CC(c2ccco2)CC3=O)c1 (stereo unspecified)	4796	0	-24	1.9	/	/	-7
CC1CC(C)(C)CC2(C1)NC(=S)N(c1ccccc1)N2 (stereo unspecified)	2423	-3	-2	4.1	/	/	4
COc1ccccc1-n1cc(C(=O)NCC(=O)N2CCN(c3ccccc3)CC2)c2ccccc2c1=O	24097*	-1	-8	2.6	3	6	-2
CC1CN(C(=O)CS(=O)(=O)Cc2ccc(Cl)cc2)CC(C)O1 (stereo unspecified)	6154	5	-9	1.3	-5	0	5
COC(=O)[C@@]1(Cc2ccc(OC)cc2)C2c3cc(C(=O)N4CCCC4)n(Cc4c(CO)[nH]cc(C)c4=O)c3CC2CN1C(=O)c1ccccc1 (stereo partly specified)	/	/	/	2.0	-6	3	4
O=C(COC(=O)c1cc(NS(=O)(=O)c2cccs2)ccc1O)Nc1ccccc1	3431	9	-16	6.4	0	6	4
O=c1c2c(ncn1CCO)nc1n2CCC1	4146	2	0	5.5	4	9	4

In another format: 3 of the compounds above
Values in the order: Bead autofluor, BJeLR lethal, PrP UTR inh, Sa RN4220 lethal, Mtb hypoxia inh, Mtb hypoxia inh growth, Sa ugtP lethal
CC1CC(C)(C)CC2(C1)NC(=S)N(c1ccccc1)N2 (stereo unspecified)
    2423, -3, -2, 4.1, /, /, 4
COc1ccccc1-n1cc(C(=O)NCC(=O)N2CCN(c3ccccc3)CC2)c2ccccc2c1=O
    24097*, -1, -8, 2.6, 3, 6, -2
CC1CN(C(=O)CS(=O)(=O)Cc2ccc(Cl)cc2)CC(C)O1 (stereo unspecified)
    6154, 5, -9, 1.3, -5, 0, 5

Further results:
SMILES	Bead autofluor	BJeLR lethal	PrP UTR inh	Sa RN4220 lethal	Mtb hypoxia inh	Mtb hypoxia inh growth	Sa ugtP lethal
CC(C)c1c(O)nc(SCCN2CCOCC2)[nH]c1=O	8239	-11	-14	1.4	1	8	3
CN(C)CCNC(=O)c1cccc(NS(=O)(=O)c2ccc(Cl)c(Cl)c2)c1	3352	-10	8	6.9	19	4	-67
CCN1C(=O)N(S(=O)(=O)C(F)(F)F)[C@@H](c2ccccc2)C(C(=O)OC)=C1C	2884	-2	-18	/	/	/	/
CCN(CC1COc2ccccc2O1)S(=O)(=O)c1ccc(C)cc1 (stereo unspecified)	2138	-6	-17	7.7	5	0	17
O=c1oc(=O)c2ccccc2c2ccccc12	3662	/	-8	3.9	11	12	2
Cc1ccc(S(=O)(=O)NCCNC(=O)c2ccc(C)nc2)cc1	3064	2	8	7.2	-1	-1	2
CCC(C(=O)NCC1CCCO1)N(C(=O)CNS(=O)(=O)c1ccccc1)c1ccc(F)cc1 (stereo unspecified)	3660	-4	-7	2.4	1	-4	7
Cc1cccc(OCc2nnc(SCC(=O)N3CCCCC3)o2)c1	4487	2	-7	4.5	11	8	15
O=C(NCCSCc1ccc(Cl)cc1)c1cccs1	5892	-3	1	-1.7	16	7	5
CC1=C(OC(=O)C(C)(C)C)C(C)(C)C(c2ccccc2)OC1=O (stereo unspecified)	2584	-6	0	-1.0	4	6	10
Cc1cc(C)n2c(Nc3ccc4c(c3)OCCO4)c(-c3ccc(C)o3)nc2n1	4853	-9	-35	-2.9	11	3	17
O=C1C=C(Nc2ccc(Cl)cc2)CC(c2ccccc2)C1 (stereo unspecified)	10757	10	-40	4.9	-2	-3	1
CCCCNC(=O)CSc1nnc(Cc2ccccc2)n1CC1CCCO1 (stereo unspecified)	4129	-6	-3	4.9	13	7	3
Cc1ccc(C=NNC(=O)Cc2cccn2C)cc1	/	/	/	1.4	-10	-6	5
COC(=O)c1nc2n(n1)C(c1cc(OC)ccc1OC)C(C(=O)OC1CCCCC1)=C(C)N2 (stereo unspecified)	5986	2	-14	1.9	9	14	-3
CCOC(=O)N1CCN(C(=O)c2ccc(NS(=O)(=O)c3ccc4[nH]c(=O)[nH]c4c3)cc2)CC1	6087	-7	-25	-0.6	-1	2	6
COc1ccccc1CCNC(=O)CN1C(=O)c2ccccc2S1(=O)=O	5621	4	-22	0.5	6	3	11
CCS(=O)(=O)c1ccc2oc(Nc3ccc(OC)cc3)nc2c1	4172	-6	-29	1.3	-1	10	-4
O=C(NCC(c1cccnc1)N1CCN(c2ccc(F)cc2)CC1)c1ccc2c(c1)OCO2 (stereo unspecified)	3023	5	-19	-14	7	3	-1
O=S1(=O)CCOCC(Cc2ccccc2)N1Cc1ccccc1 (stereo unspecified)	/	/	/	7.9	20	19	5
Cc1ccc(N2CCN(N=Cc3ccncc3)CC2)cc1	/	/	/	9.5	5	6	4
COc1ccccc1Nc1cc2cc(Br)ccc2c(=O)[nH]1	2883	16	-36	-3.1	3	8	-19
Cc1ccccc1NC(=O)c1ccc(F)c(S(=O)(=O)N2CCCCC2)c1	4444	-1	-37	3.0	7	3	1
CC(C)NC(=O)C1CCN(C2CCN(C(=O)c3ccc4cccc(F)c4n3)CC2)CC1	4381	4	-7	3.8	-3	2	5
CCn1nc(CCC(=O)O)c2ccccc2c1=O	22340*	4	3	3.1	7	12	-1
COc1cccc(-n2c(SCC(N)=O)nc3c([nH]c4ccccc43)c2=O)c1	3258	4	-12	-0.6	-15	-7	-18
CC1(C)CC(=O)C2=C(C1)N(Cc1ccco1)C(=O)NC2(C(F)(F)F)C(F)(F)F	8477	-4	-51	0.8	3	-3	6
O=S(=O)(c1ccccc1)[C@@]1(c2ccc(Br)cc2)CC2ON=C(c3cccc(Br)c3)C2C1 (stereo partly specified)	/	/	/	-8.3	7	18	-17
